Screens from PubChem.
gsp antag: antagonists of gsp mutant (McCune-Albright syndrome); Potency, µM (highest dose often 76.9 µM), inactives show at the highest dose activity change, negative = inhibition, usual class: inhibitors; actives 0.4% (n = 340,000); gsp-mutant cells, cAMP HTRF, 30 min; control for the full effect not named in the record; AID 624288; active = falling curve of any shape with a large fitted effect; inconclusive = falling curve, mostly with a smaller effect; inactive = flat or rising curve; cell line not stated here;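 note: intracellular cAMP measured with PDE inhibitor Ro 20-1724 present during compound exposure; potency is the fitted concentration of half-maximal effect; % is set by controls: 0 for no effect and ±100 for the full control effect; nearly all actives have a fitted effect of over 65% in size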
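Cells, 2000/well, grown 16–24 h in DMEM 10% FBS with 0.5 mg/ml G418, then compounds plus […] (300 uM addition stock), 30 min at 37C. cAMP read by HTRF (cAMP-d2 and anti-cAMP antibody-K in lysis buffer) after 30 min RT.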
D2 agonist: agonists of human D2 dopamine receptor (beta-arrestin) | DiscoveRx PathHunter D2 beta-arrestin, luminescence, 90 min; 100% = 57 uM dopamine signal | activation, % (concentration not given with the values) | actives 0.084% (n = 360,000); in the data active = activation above about 40%; inconclusive = about 15% to 40%; inactive = below about 15%; note: compound concentration not given in the record; the text of the record calls up to 30% inactive
Target sequence (P14416 whole entry, looked up): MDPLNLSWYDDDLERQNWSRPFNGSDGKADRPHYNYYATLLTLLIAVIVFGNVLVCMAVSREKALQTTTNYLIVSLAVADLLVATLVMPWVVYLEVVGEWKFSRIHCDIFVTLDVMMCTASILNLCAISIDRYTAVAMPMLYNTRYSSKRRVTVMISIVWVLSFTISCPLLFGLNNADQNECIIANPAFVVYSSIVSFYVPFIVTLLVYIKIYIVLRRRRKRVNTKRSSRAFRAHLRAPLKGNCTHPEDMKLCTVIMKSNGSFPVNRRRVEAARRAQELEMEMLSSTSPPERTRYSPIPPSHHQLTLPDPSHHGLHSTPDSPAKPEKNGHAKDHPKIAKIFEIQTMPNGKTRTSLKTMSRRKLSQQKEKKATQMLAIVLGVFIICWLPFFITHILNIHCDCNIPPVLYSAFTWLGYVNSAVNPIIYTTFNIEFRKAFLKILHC
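DiscoveRx PathHunter D2 beta-arrestin cells (2,100/well) attached overnight, then compound-stimulated 90 min at 37 C in HBSS/10 mM HEPES/0.1% Tween-20 buffer; beta-galactosidase complementation read by luminescence after 1 h at ambient temperature. Dopamine 57 uM final (EC100) as control.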
Menin-MLL FL inh: displaces fluorescein MLL peptide from human menin; 290,000 tested, under 10 active; Fluorescence polarization, fluorescein-MLL peptide displacement from menin; FP activity change, % at 61.4 µM; inconclusive = falling polarisation curve, or a change in total fluorescence; inactive = total fluorescence flat and polarisation flat or rising; no compound was filed as active; the % refers to the polarisation; negative = inhibition;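 note: % of control where 0% means no effect; inhibitors lower the polarisation; unlabelled MLL peptide was the positive control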
PINK1 expr mod: changes PINK1 expression. PINK1 immunofluorescence, high-content cytometry, 24 h. Potency, µM (doses to about 76.6 µM), for inactives: at the top dose activation (PINK1 increase), most hits filed as activators. actives 0.2% (n = 410,000). AID 624263; active = well fitted activation curve with a large enough effect; inconclusive = small, poorly fitted or top-dose-only effect; inactive = flat fitted curve, though single readings scatter; cell line not stated here;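 note: potency is the fitted concentration of half-maximal effect; % of control where 0% means no effect; nearly all actives have a fitted effect of over 65% in size; a mitochondrial uncoupler was the plate control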
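Measures PINK1 amount and localization on or inside mitochondria by immunofluorescence. Stable cells get compounds at 5 concentrations for 24 hours before fixation and staining; CCCP controls included.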
Sfp inh: Sfp phosphopantetheinyl transferase inhibition. Q9F4F7. Biochemical Sfp PPTase activity, qHTS. Potency, µM, for inactives: max response, negative = inhibition, usual class: inhibitors. actives 3.5% (n = 310,000). AID 1490; active = well fitted inhibition curve with a large enough effect; inconclusive = small, poorly fitted or top-dose-only effect, or another doubt; inactive = no such curve, though single readings can be large or run the other way;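 note: the enzyme is Sfp with the accession as filed and its product quenches rhodamine fluorescence; potency is the fitted concentration of half-maximal effect; 0% = enzyme reaction without inhibitor and -100% = no enzyme wells; top concentration of the series not given in the record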
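After 15 min at room temperature with compound, 15 nM Sfp received 5 uM rhodamine-CoA plus 12.5 uM BHQ-2-ybbR (50 mM Hepes pH 7.6, 10 mM MgCl2). Rate came from the fluorescence difference over 30 min, ex 525/em 598 nm.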
gsp agonist: agonists of gsp mutant (McCune-Albright syndrome); actives 0.13% (n = 340,000); Potency, µM (doses to about 76.9 µM), for the others: at the top dose activation (cAMP increase), hits mostly activators; gsp mutant cells, cAMP HTRF, 30 min; control for the full effect not named in the record; AID 624287; active = well fitted activation curve with a large enough effect; inconclusive = small, poorly fitted or top-dose-only effect, or another doubt; inactive = no such curve, though single readings can be large or run the other way; cell line not stated here;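 note: phosphodiesterase inhibitor Ro 20-1724 added with compounds to block cAMP breakdown; potency is the fitted concentration of half-maximal effect; nearly all actives have a fitted effect of over 60% in size; about a fifth of the inactives were tested at one dose only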
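Cells stably selected in G418 were plated at 2000/well, grown 16-24 hr, then given compounds in DMSO with the PDE inhibitor […] (300 uM solution added) for 30 min at 37C; cAMP was read by HTRF.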
ClpP mod: qHTS Assay for Activators of ClpP; ATP-dependent Clp protease proteolytic subunit (Bacillus subtilis (strain 168)), P80244; purified B. subtilis ClpP, FRET peptide cleavage, 20 min; Potency, µM (doses to about 57.5 µM), without a hit: top-dose activity change, negative = active; actives 1.9% (n = 340,000); AID 651965, 2013; active = well fitted falling curve with a large enough effect; inconclusive = small, poorly fitted or top-dose-only effect; inactive = no such curve, though single readings can be large or run the other way; note: potency is the fitted concentration of half-maximal effect; the source files actives as falling curves though it sought activators and does not explain the sign; nearly all actives have a fitted effect of over 65% in size; many hits overshoot -100%
Target sequence (P80244 whole entry, looked up): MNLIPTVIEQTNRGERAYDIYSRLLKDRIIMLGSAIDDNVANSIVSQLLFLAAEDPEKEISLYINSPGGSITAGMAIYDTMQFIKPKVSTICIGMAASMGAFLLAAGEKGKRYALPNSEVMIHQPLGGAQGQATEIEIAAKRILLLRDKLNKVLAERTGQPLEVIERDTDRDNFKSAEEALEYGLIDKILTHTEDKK
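Purified B. subtilis ClpP, 10 microg/mL final in Tris/HCl pH8 with KCl, BSA, glycerol and Tween-20, cleaved an Abz/nitrotyrosine-quenched decapeptide. Fluorescence (ex 320, em 430) was read at 0 and 20 min at room temperature. Delta was normalized to 5.8 microM ADEP and DMSO/no-enzyme controls.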
Active calls of the source: *; ? = inconclusive; · = no result given; [ ] = remark or other dose. The order is random. About 5.1% of those tested had a hit in this group.

SMILES	gsp antag	D2 agonist	Menin-MLL FL inh	PINK1 expr mod	Sfp inh	gsp agonist	ClpP mod
CC(=O)N1CCOc2ccc(S(=O)(=O)NCCc3cccc(C)c3)cc21	3.8%	-6.8	3.0	-0.6%	6.0%	?	-0.5%
CC(C)(C)c1ccc(C(=O)N/N=C2\C3CN4CCN(C3)CC2(c2ccccc2)C4)cc1	7.6%	-3.5	0.2	2.2%	3.8%	-47.6%[inhibitor]	22.4µM*
CCSc1nc(O)c(C(c2cccc(OC)c2)c2c(O)nc(SCC)[nH]c2=O)c(=O)[nH]1	-3.9%	2.2	2.0	-0.4%	3.7%	-4.5%[15.4 µM]	0.5%
COc1ccc2cc(CN(CC3COCCO3)S(=O)(=O)c3ccccc3)c(=O)[nH]c2c1 (stereo unspecified)	-16.4%	-3.8	4.3	6.4%	13.7%	-32.5%[inhibitor]	?
CN(C(=O)C12CC3CC(CC(C3)C1)C2)C1CCS(=O)(=O)C1 (stereo unspecified)	-0.9%	-2.0	-2.3	1.0%	-1.7%	0.0%	-0.3%
O=S(=O)(CCCc1ccccc1)c1ncn[nH]1	1.2%	-0.7	1.1	4.3%	3.6%	-35.7%[inhibitor]	-1.8%
CC(C)CN(CC(C)C)C(=O)CN1c2cccc3cccc(c23)S1(=O)=O	-9.0%	3.7	-0.1	0.0%	1.4%	11.9%	-21.0%
CC[C@]1(C(=O)OC)[C@H]2C(=O)N(Cc3ccccc3)C(=O)[C@H]2[C@H]2CN=C(SCc3ccc(C#N)cc3)N21	-9.3%	-0.5	·	-1.1%	·	·	1.8%
Cc1oc(-c2cccc(Br)c2)[n+]([O-])c1C	-9.7%	-3.5	-2.9	-0.7%	-16.5%	1.2%[15.4 µM]	·
O=C(COc1ccc(Cl)cc1)Nc1cc2c3c(c1)CC(=O)N3CCC2	-14.9%	-5.4	·	2.9%	·	-3.5%[15.4 µM]	0.9%
Cc1cc([N+](=O)[O-])ccc1NC(=O)c1cc2ccccc2o1	3.7%	0.3	-3.2	-0.3%	23.3%	-9.9%[15.4 µM]	-4.7%
COC(=O)c1nn(-c2ccccc2)c(Cl)c1/C=N/OCc1ccc(C)cc1	-10.1%	-0.9	7.2	1.9%	-11.8%	-4.3%	-1.2%
CC1(C)Cc2ccccc2-c2nnc(SCc3ccc(C#N)cc3)n21	-17.1%	-0.2	3.4	-1.6%	11.8%	0.4%	-0.2%
COc1cc(C(=O)OCCCN2CCOCC2)ccc1O	12.7%	-4.5	4.3	0.9%	16.7%	-2.2%[15.4 µM]	·
Cc1ccc(CN2C(=O)CCC2C(=O)NCc2cccnc2)cc1 (stereo unspecified)	6.7%	-0.7	2.2	-3.7%[38.3 µM]	20.2%	11.5%	-1.8%
COc1ccc(C(=O)CSc2nnc(CN3CCCCC3)n2-c2ccc(F)cc2)cc1OC	1.3%	-3.7	5.7	0.8%	5.3%	-1.5%[15.4 µM]	-1.8%
Cc1nnc(SCC(=O)NC2CCCc3c2cnn3-c2ccccc2F)o1 (stereo unspecified)	4.7%	3.4	·	0.4%	8.7%	-44.9%[inhibitor]	0.7%
CCN(CCCn1c(=S)[nH]c2ccc(N3CCOCC3)cc2c1=O)c1ccccc1	-11.6%	2.5	1.1	1.0%	28.2%	0.0%[15.4 µM]	·
C=CCCC(=O)NC1CCCc2c1cnn2-c1ccccc1F (stereo unspecified)	-11.7%	3.1	-3.2	1.5%	3.2%	?	1.4%
O=C(NN1C(=O)C2C(C1=O)C1C=CC2C12CC2)c1ccccc1Cl (stereo unspecified)	9.0%	-1.0	-0.6	-0.9%	12.4%	-13.0%	·
O=C(NNC(=O)C1CC1)c1cccc([N+](=O)[O-])c1	8.2%	-4.8	·	-0.3%	21.3%	-20.6%	-0.5%
NC(=O)c1nsc(C(=O)N(Cc2cccnc2)C(C(=O)NCc2ccc(F)cc2)c2ccc(O)cc2)c1N (stereo unspecified)	-31.5%	-3.4	·	1.1%	-0.3%	12.4%[15.4 µM]	·
COC(=O)c1ccc(NC(=O)C(=O)c2cn(CC(=O)N3CCOCC3)c3ccccc23)cc1	4.9%	1.0	·	11.2%	-2.0%	1.6%	-1.1%
O=C(O)c1sccc1S(=O)(=O)N1CCOCC1	2.1%	-0.1	·	-0.5%	·	-17.7%	-1.9%
CC(C)(C)n1ncc2c(=O)n(CC(=O)Nc3ccc4c(c3)OCCO4)cnc21	-3.1%	-4.8	-4.2	-2.7%	3.7%	-51.1%[inhibitor]	0.9%
CC(=O)c1c(C)[nH]c(C(=O)Nc2cccc(S(=O)(=O)N3CCCC3)c2)c1C	-14.0%	-0.8	·	12.4%	·	8.7%[15.4 µM]	-0.1%
Cc1ccc(/C=C2\SC(=S)N(CCC(=O)NNS(=O)(=O)c3ccccc3)C2=O)cc1	50.1µM*	-2.0	15.5	4.2%	13.1%	-13.6%[15.4 µM]	·
COc1ccc(C(=O)Nc2ccccc2[N+](=O)[O-])cc1S(=O)(=O)N1CCOCC1	7.0%	0.0	·	0.0%	2.2%	-22.9%	0.7%
O=C(Nc1cccc(C(F)(F)F)c1)C1CCCN(c2ncccn2)C1 (stereo unspecified)	4.9%	-1.6	0.4	2.7%[38.3 µM]	-2.0%	3.0%	-13.9%
CCCCCOc1ccc(Cn2ccnc2)cc1[N+](=O)[O-]	43.7%[activator]	-8.9	2.3	1.0%	26.3%	-7.4%	0.6%
Cc1ccn2c(=O)nc(SCC(=O)Nc3cccc4ccccc34)nc2c1	-7.5%	-2.8	·	-1.5%	·	26.0%[15.4 µM]	·
CCC(C)NC(=O)c1cn(C)c(=O)c2cc(OC)c(OC)cc12 (stereo unspecified)	10.8%	1.4	2.5	-0.4%	13.0%	-16.2%	-9.4%
Cc1ccc2nsnc2c1N(S(C)(=O)=O)S(C)(=O)=O	-2.0%	2.7	1.1	-2.0%	0.1%	-26.2%	?
COCCN(Cc1cc2cc3c(cc2nc1Cl)OCO3)C(=O)c1cccc(C)c1	-26.0%	1.5	2.5	3.0%	-2.4%	?	-18.6%
C[C@H](CO)N1C[C@H](C)[C@@H](CN(C)C(=O)Nc2ccc(C(F)(F)F)cc2)Oc2ccc(NC(=O)Nc3ccccc3)cc2C1=O	-12.0%	-0.8	·	2.7%	·	·	2.7%
COC(=O)c1cc(S(=O)(=O)NCC(C)c2ccccc2)c[nH]1 (stereo unspecified)	·	1.1	·	1.5%	·	46.0%	2.7%
Cn1cc(CCC(=O)N2CCCC(Nc3ccc(F)cc3)C2)cn1 (stereo unspecified)	8.7%	-5.6	·	0.9%	3.8%	-1.9%	-1.5%
Cc1cc2ccccc2c(=O)n1CC(=O)Nc1ccc2c(c1)OCCO2	-3.6%	-0.8	0.8	3.1%	-3.5%	-2.6%	?
CCOc1ccc(C(=O)Nc2nnc(NC(=S)Nc3ccccc3)s2)cc1	?	2.1	0.8	4.3%	?	2.8%[15.4 µM]	2.0%
CCOCCCNC(=O)c1ccc(NC(C)=O)cc1	11.0%	-1.3	-2.4	-0.3%	-2.6%	-14.5%	-3.6%
N#CC1=C(N)Oc2c(ccc3ccccc23)C1c1cccs1 (stereo unspecified)	2.9%	4.6	1.4	0.9%	50.1µM*	8.5%	-6.0%
CCCCNC(=O)c1ccccc1C(=O)NC1(C(=O)NCCCC)CCCC1	-10.6%	3.4	·	-1.3%	·	-3.2%[15.4 µM]	1.5%
COc1ccc(-c2cc(C#N)nc(N3CCN(c4ccccc4)CC3)n2)cc1	-4.8%	-3.6	2.8	1.9%	9.8%	-22.2%	0.9%
C#Cc1ccc([C@H]2C=C(C(=O)N3CCOCC3)O[C@@H](OCC)[C@@H]2CCCO)cc1	-6.2%	-1.6	-2.6	5.4%	7.7%	·	-0.2%
COc1ccc(C(=O)N/N=C/c2ccc(SC)cc2)cc1	-1.4%	-2.9	0.1	11.1%	-0.8%	-52.5%[inhibitor]	-12.3%
COc1ccc(Nc2nnc(SCC(=O)c3cc(C)n(CC4CCCO4)c3C)s2)cc1 (stereo unspecified)	?	-2.2	-4.1	0.3%	?	-40.1%[inhibitor]	0.0%
COc1ccc(-c2csc(N(C)C(=O)c3ccco3)n2)cc1	0.3%	2.4	2.0	6.4%	?	-10.9%[15.4 µM]	0.4%
C/C(=N\NS(=O)(=O)c1ccc(Cl)c([N+](=O)[O-])c1)c1ccc(C)o1	-15.6%	0.2	-0.8	-0.8%	-13.2%	-19.4%	-0.4%
Cc1nc2ccccc2c2oc(C(=O)NCCCN3CCCC3=O)cc12	-7.1%	0.4	2.4	-1.8%	19.4%	?	-13.6%
CC(=O)c1cccc(N(CC(=O)NC2CCCCC2)C(=O)c2csnn2)c1	3.2%	-3.7	8.7	-0.9%	9.5%	29.9%	·
CCN(CC)CCNc1ncnc2c1sc1nc(N3CCOCC3)c3c(c12)CCCC3	-0.2%	2.4	18.9	-2.0%	3.9%	8.5%[15.4 µM]	·
COc1cc(/C=C2\S/C(=N/S(=O)(=O)c3ccccc3)NC2=O)c([N+](=O)[O-])cc1OC	5.0%	-0.8	?	-2.3%	?	3.0%	-0.4%
NS(=O)(=O)c1ccc(CCNC(=O)CNCCc2ccccc2)cc1	9.4%	2.1	0.6	0.1%	-10.0%	12.5%	·
O=C(O)c1cc(NC(=O)C2CCCO2)cc(NC(=O)C2CCCO2)c1 (stereo unspecified)	1.0%	-3.0	0.0	·	15.1%	5.5%	-1.8%
O=C(Nc1ccccc1C(=O)O)c1cccc(NC(=O)c2ccccc2Cl)c1	-4.3%	5.5	1.9	2.3%	-23.9%	14.1%	0.6%
CCOC(=O)Cc1csc(NC(=O)c2c(-c3ccccc3)noc2C)n1	-9.4%	0.6	4.4	?	15.2%	0.4%	-0.7%
O=C1c2ccccc2C(=O)N1C1C(=O)N2CCSC12C(=O)OCc1ccccc1 (stereo unspecified)	-5.0%	-0.5	·	-1.8%	·	24.2%	-1.8%
